Compound activity deposited in PubChem by ICCB-Longwood Screening Facility, Harvard Medical School.
CapD inh: Bacillus anthracis CapD inhibitors, primary screen, biochemical, fluorescence intensity; z-score (no concentration beside the values); actives 0.23% (n = 140,000); AID 492967, 2010; purified CapD enzyme, fluorescence intensity read-out; stronger effect = lower value; some hits fall short of the stated cut; CapD gamma-glutamyltranspeptidase (Bacillus anthracis Ames Ancestor);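 active means z-score under -4 in either of two replicates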;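 further: stock transfer was 100 nL into about 40 µL; score is relative to mean and spread of the plate; one replicate is shown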
AID504770: growth inhibition of E. coli YBA685, primary screen, V. cholerae RctB inhibitors; E. coli YBA685 rctB-dependent plasmid, OD600 growth, 3 h; stronger effect = lower value; z-score (no concentration beside the values); actives 0.27% (n = 130,000);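 active means z-score under -2 on both plates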;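 further: wells of about 30 µL received 100 nL stock; score is relative to mean and SD of the test wells; the first replicate is given; strong numbers were not always called active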
Starred values were filed as active, the others as inactive; . = no result given.

SMILES	CapD inh	AID504770
CCC1CCc2nc3sc(C(=O)NC(C)c4ccccc4)c(N)c3cc2C1 (stereo unspecified)	-1.5	1.5
CC1CCN(c2nc3c([nH]2)c(=O)n(C)c(=O)n3C)CC1	-0.86	1.6
O=C1c2sc3nc4c(c(=O)n3c2C(=O)N1c1ccc(Cl)cc1)CCC4	-0.32	.
CC(C)CNC(=O)c1cccc(S(=O)(=O)N2CCCCC2)c1	0.065	-4.8*
COc1cc(/C=C2\C(=O)N(c3ccc(Cl)c(C(=O)O)c3)N=C2C)ccc1OCc1ccccc1	-0.6	.
O=C(O)COc1ccc(N=Cc2nc(-c3ccc(Br)cc3)oc2O)cc1	0.57	.
CCOP(=S)(NC)OCC	-0.36	1.8
CSc1ccncc1C(=O)Nc1ccc(F)cc1F	-0.69	-0.7
O=S(=O)(c1ccccc1)n1cc(-c2ccccn2)c(N2CCOCC2)n1	0.33	.
CC(C)(C)NC(=O)CSc1nnc([C@H](Cc2ccccc2)NC(=O)OC(C)(C)C)o1	-0.14	1.1
CC(C)(C)NC(=O)Cn1nc(Cl)nc1Cl	.	0.2
COc1ccc(N=CC2=C(O)CC(c3cccs3)CC2=O)cc1 (stereo unspecified)	-0.24	0.45
Cc1ccc2cc(-c3noc(C4CCCO4)n3)c(=O)[nH]c2c1 (stereo unspecified)	81	0.8
CC(C)(C)C(=O)N1CCN(S(=O)(=O)c2ccccc2)CC1	.	0.2
Cc1c(C(N)=O)cnn1-c1ccc(Cl)cc1	0.64	0.3
Cc1ccc2nc(NC(=O)C3CCCN(S(=O)(=O)c4ccc(Br)s4)C3)sc2c1 (stereo unspecified)	0.2	-0.1
Cn1c(N)c(C(=O)COC(=O)C2CCN(C3=NS(=O)(=O)c4ccccc43)CC2)c(=O)n(C)c1=O	.	-1.1
Cc1ccc2cc3c(nc2c1)-c1ccccc1C3	13	.
COc1ccc(NC(=O)Nc2ccccn2)cc1	.	-0.1
COc1ccc(NC(=O)C2CCN(S(=O)(=O)c3ccc(C)cc3)CC2)cc1	0.24	.
CCC(N)c1ccc(C)cc1 (stereo unspecified)	.	-0.75
O=c1[nH]c(=S)[nH]c(O)c1C=Nc1cccc(O)c1	-0.72	0.9
CCCN1CNC(=S)N(c2ccccc2OC)C1	0.55	-0.25
O=C(CSc1nc2ccccc2c(=O)n1CCc1ccccc1)NCc1ccccc1	0.03	-0.85
NS(=O)(=O)c1ccc(CCNC(=O)c2oc(=O)c3ccccc3c2-c2ccccc2)cc1	0.71	0.1
O=C(Nc1ccc(CSc2ccccc2)cc1)c1ccc(C(F)(F)F)cc1	-0.15	.
CSC1=CC(=O)CC(C)(C)S1	-1.7	.
COc1ccc(C2CC(c3ccccc3)=NN2C(=O)Cn2nnc3ccccc32)cc1 (stereo unspecified)	.	-0.4
O=C(Nc1ccc(S(=O)(=O)N2CCCCC2c2cccnc2)cc1)c1ccc(Cl)c([N+](=O)[O-])c1 (stereo unspecified)	-0.21	.
CCCC(=O)C1CCOC(C)(CC)C1 (stereo unspecified)	.	-0.2
Cc1ccc(CN2C(=O)C(C)(C)Oc3ccc(C(=O)NC4CC4)cc32)cc1	.	1.4
Cc1cc(NC(=O)c2ccc(S(=O)(=O)N3CCc4ccccc43)cc2)no1	.	-0.7
COc1cccc(OC)c1CNC(=O)c1cnccc1C(F)(F)F	-0.57	-0.85
Cc1cccc(NC(=O)CSc2nsc(SCC(=O)Nc3cccc(C)c3)n2)c1	0.005	0.2
CC(C)(C)c1nnc2sc(SCC(=O)Nc3ccc(Br)cc3)nn2c1=O	0.35	-1.9
N#C/C(=C/c1ccccc1)C(=O)N/C=N/OCc1ccc(Cl)cc1Cl	-0.45	.
N#CC1=C(N)N(c2ccc(S(N)(=O)=O)cc2)C2=C(C(=O)CCC2)C1c1ccc2c(c1)OCO2 (stereo unspecified)	0.035	.
O=C(NC1(C(F)(F)F)Oc2ccccc2O1)N1CCCC1	.	1.1
CCc1ccccc1N(C)S(=O)(=O)c1c(C)noc1/C=C/N1CCOCC1	-3.4	-0.5
CC1(C)Oc2ccc3ccc(=O)oc3c2C(N2CCCCC2)C1O (stereo unspecified)	15	-0.3
Cn1cccc1Cc1nnc(SCC(=O)NO)n1-c1ccc(OC(F)(F)F)cc1	.	-0.95
CCC(=O)OCC(=O)Nc1ccc(Br)cc1Br	-0.08	-0.1
S=C1NCN(CCN2CCCC2)CN1	-0.99	.
C=CCNc1nc(C(=O)OCC(=O)Nc2scc(-c3cccs3)c2C(=O)OCC)cs1	.	-0.2
Nc1ccccc1C(=O)N1CCCCCC1	.	1.8
CNC(=O)c1cc(Br)cc(S(=O)(=O)N2CCC(C)CC2)c1	.	1.4
CCCNC(=O)c1cccc(C)c1	.	-0.55
O=C(Oc1c(Cl)cc(Cl)c2cccnc12)N1CCCCCC1	.	1.3
O=C(Nc1scc(-c2cccs2)c1C(=O)O)c1cccs1	-2.9	-1
Cc1cc(C(=O)OCC(=O)N2CCc3ccccc32)c(C)o1	-0.22	-0.25
CCOC(=O)CSC1=C(C#N)C(c2ccccc2)CC(=O)N1 (stereo unspecified)	-0.21	-0.9
NNc1nc(Nc2ccc(Br)cc2)nc(N2CCOCC2)n1	0.005	.
Cc1cccc(OCCOc2ccc(Cl)cc2C=C2C(=O)NC(=S)NC2=O)c1	-1.4	.
N#CC(C#N)=CNCC(c1ccc(F)cc1)N1CCOCC1 (stereo unspecified)	.	1.5
Cn1c(SCC(=O)N2CCc3ccccc32)nc2c(c1=O)SCC2	-0.86	1.8
Cc1noc(C)c1-n1sc(=O)n(CC2CC2)c1=O	0.02	-0.8
CC(C)COc1ccc(C(=O)N(C)Cc2ccccc2)cc1	-0.27	-0.5
CC(C)CCn1c(=O)c2sccc2n2c(CCCC(=O)N3CCCC3)nnc12	0.84	1.1
Cc1ccc(S(=O)(=O)N2CCc3ccccc3C2CN2C(=O)c3ccccc3C2=O)cc1[N+](=O)[O-] (stereo unspecified)	0.74	.
S=c1[nH]nc(-c2c(-c3ccccc3)c(-c3ccccc3)nn3nnnc23)o1	-2	-0.1
(cont.)
SMILES	CapD inh	AID504770
COc1cc(CN2CCN(C(=O)c3cccc4ccccc34)CC2)cc(OC)c1OC	.	-1.1
COc1cccc(N/C(SCc2cc(F)ccc2F)=C(/C#N)C(=O)NCc2ccccc2)c1	-0.44	.
c1ccc(-c2cnc(-c3ccccc3)nc2)cc1	-1.2	-1
COc1ccc(-c2nn(C3CC(=O)C4OCC3O4)c(=S)n2C)cc1 (stereo unspecified)	-0.32	.
CCOc1ccc(NC(=O)C2CCN(C(C)=O)CC2)cc1	-0.31	-0.75
CCS(=O)(=O)Nc1ccc(C2=NN(C(=S)Nc3ccccc3)C(c3ccco3)C2)cc1 (stereo unspecified)	.	-0.7
Cc1oc2cc(OC(C)C)ccc2c(=O)c1-c1ccc2c(c1)OCCO2	-0.04	0.55
Nc1cc2c(cc1Cl)OCCCO2	.	1.9
O=S(=O)(Nc1ccncc1)c1ccccc1	.	-1.1
CCOc1ccc(N(CC)C(=O)CCc2nc(-c3ccc(OC)cc3)no2)cc1	-0.08	0.9
COc1cccc(OCC(O)CN2CCCCC2)c1 (stereo unspecified)	-0.39	-0.7
CC(=O)NC(C)c1nc2ccccc2[nH]1 (stereo unspecified)	0.075	-0.95
Cc1ccc(C(=O)Sc2nnc3sc4ccccc4n23)cc1	.	0.15
Cc1nc(-c2cc(C#N)c(SCCNS(=O)(=O)c3ccc(C(C)(C)C)cc3)nc2C)cs1	1.7	0.15
CCc1ccccc1Nc1cc(C(=O)NCC2COc3ccccc3O2)c2ccccc2n1 (stereo unspecified)	1.2	0.55
COC(=O)c1cc(CSc2nnc(NC3CCCCC3)s2)oc1C	.	-0.3
COC(=O)CCC(=O)Nc1sc(C)c(C)c1C(N)=O	0.28	0.2
CC(C)c1ccccc1NC(=O)COC(=O)c1ccc(N(C)C)cc1	-0.34	1.9
Cc1ccc(S(=O)(=O)N(C)CCCc2nc3ccccc3[nH]2)cc1	-0.45	0.65
O=C(NC1CCCC1)C1CCC(CNS(=O)(=O)c2ccccc2)CC1 (stereo unspecified)	-0.58	-0.8

4 entries from above, reformatted.
CCOc1ccc(N(CC)C(=O)CCc2nc(-c3ccc(OC)cc3)no2)cc1
- CapD inh: -0.08
- AID504770: 0.9

c1ccc(-c2cnc(-c3ccccc3)nc2)cc1
- CapD inh: -1.2
- AID504770: -1

O=S(=O)(Nc1ccncc1)c1ccccc1
- CapD inh: .
- AID504770: -1.1

COC(=O)c1cc(CSc2nnc(NC3CCCCC3)s2)oc1C
- CapD inh: .
- AID504770: -0.3

Going on with the list.
SMILES	CapD inh	AID504770
COc1ccc(CCN(Cc2cc3cc4c(cc3[nH]c2=O)OCO4)C(=O)c2ccncc2)cc1OC	.	-0.75
CC1CC(C)CN(C(=O)c2ccc(N3CC4CC(C3)c3cccc(=O)n3C4)c(NC(=O)c3ccc(Br)o3)c2)C1 (stereo unspecified)	0.31	.
Cc1ccc(Sc2ncccc2C(=O)Nc2ccnn2C2CCN(C)CC2)cc1	.	-1.2
COc1ccc2nc(C)c(C(=O)O)cc2c1	.	-0.8
CSc1ncc(C(=O)NC(C)c2ccccn2)n1-c1ccc(F)cc1 (stereo unspecified)	.	-0.15
Cc1ccc(NNC(=O)c2c(-c3ccccc3)noc2C)cc1C	0.47	-0.1
COc1cc(/C=C2\C(=O)N(c3ccc(S(N)(=O)=O)cc3)N=C2C)cc(Br)c1OCc1ccccc1	-0.25	.
O=[N+]([O-])c1ccc(Oc2ccc(C3SCCS3)cc2)cc1	-0.23	.
CCc1ccccc1NC(=S)N(CCN(C)C)Cc1cccs1	15	.
Cc1nnc(Nc2ccc(C(=O)N3CCCCC3)cc2)c2ccccc12	.	-0.3
S=C(NC1CCCCC1)N1CCn2cccc2C1c1cccs1 (stereo unspecified)	-0.22	-0.4
COc1ccc(CCN(C)C(=O)c2ccc(-c3ccccn3)s2)cc1OC	0.42	.
COc1ccc(N(C)c2ncnc3onc(-c4ccc(Cl)cc4)c23)c(OC)c1	2.1	-0.45
COCCN1C(=O)c2ccc(C(=O)Nc3ccccc3)cc2C1=O	0.01	-0.55
CCOC(=O)C1=C(C)N=c2s/c(=C/c3cc(Br)ccc3O)c(=O)n2C1c1cc(OC)ccc1OC (stereo unspecified)	0.21	.
COc1cccc(OCC(O)CN2CCN(c3ccc(F)cc3)CC2)c1 (stereo unspecified)	-0.46	-1
CC(C)NC(=O)COCc1cc(-c2ccco2)on1	-0.41	1.4
CC1(C)CC(=O)C2=C(C1)c1c(ccc3ccccc13)NC2c1cn(Cc2ccc(Cl)c(Cl)c2)nc1-c1ccccc1 (stereo unspecified)	12	.
CC(CCCC(C)(C)O)CC1C2=C(CCCC2=O)OC2=C1C(=O)CCC2 (stereo unspecified)	-0.41	.
CCc1ccc2ncc(S(=O)(=O)c3ccccc3)c(N3CCCCC3)c2c1	0.2	0.4
FC(F)Oc1ccccc1/C=N/n1cnc2ccccc21	.	0.2
O=C(NNC(=O)c1ccc2c(c1)OCO2)OCc1cccc(OCc2ccccc2)c1	-0.73	.
COC(=O)C1=C(C)N(c2ccccc2Cl)C(=O)/C1=C\c1cccs1	-0.3	-1.4
CCN(c1ccccc1C(=O)O)S(=O)(=O)c1ccc2c(c1)n(C)c(=O)n2C	0.86	-0.2
Cc1ccc(N=Cc2ccccc2)cc1	0.65	-0.85
CC1(C)C2CCC(COC(=O)N3CCN(c4ccc(C(F)(F)F)cn4)CC3)C1C2 (stereo unspecified)	6.6	.
N=C1C(c2ccccc2)=C(O)CN1Cc1ccccc1	0.15	1.9
CCN(CC)CCNc1ncnc2c1sc1nc(C(C)C)c3c(c12)CCCC3	-0.91	-0.55
O=C(O)C1CC2CC1CCC2O (stereo unspecified)	0.96	.
CN(NC(=O)NC(=O)c1c(Cl)cccc1Cl)c1ccc(Cl)cc1[N+](=O)[O-]	-0.005	.
O=C(CN1CCc2ccccc21)N1CCCc2ccccc21	0.33	-0.6
N#Cc1ccc(COc2cnnc3ccccc23)cc1	.	0
COCc1cc(C)nc(OCC2=NN(C(C)=O)C(c3cccc(OC)c3)O2)c1C#N (stereo unspecified)	5	-1.4
CC(C)CN(CC(C)C)C(=O)c1cc2c(Cl)nc3ccccc3c2s1	-1.9	0.2
COC(=O)Cc1nc(C)cs1	.	-0.3
COc1ccc(CCC(=O)NNc2ccccc2)cc1	.	1.2
O=C(Cn1c(=O)oc2cc(S(=O)(=O)NCc3ccccc3)ccc21)NC1CCCCC1	-1	0.75
CN(C)c1nc(N)nc(Cn2ccnc2)n1	-0.025	-0.3
O=S(=O)(Oc1ccc(Oc2ccccc2)cc1)c1cc(Cl)c(Cl)cc1Cl	0.11	.
O=C(c1cnn(-c2cccc(F)c2)c1-n1cccc1)N1CCc2ccccc21	0.68	0.2
Cc1cc(C)c(-n2c(SCc3nc4ccccc4s3)n[nH]c2=O)c(C)c1	-1.5	-1.1
Cc1ccc(NC(=O)CSc2nc3c(c(-c4ccco4)c2C#N)CCCC3)cc1	-0.14	.

Five entries already listed, ordered by SMILES length, falling:
SMILES	CapD inh	AID504770
CN(NC(=O)NC(=O)c1c(Cl)cccc1Cl)c1ccc(Cl)cc1[N+](=O)[O-]	-0.005	.
O=C(Cn1c(=O)oc2cc(S(=O)(=O)NCc3ccccc3)ccc21)NC1CCCCC1	-1	0.75
O=C(c1cnn(-c2cccc(F)c2)c1-n1cccc1)N1CCc2ccccc21	0.68	0.2
N=C1C(c2ccccc2)=C(O)CN1Cc1ccccc1	0.15	1.9
COC(=O)Cc1nc(C)cs1	.	-0.3
